Six1-Eya2 blk – blocks human Six1 binding to Eya2 | 0.56% of 360,000 active | AlphaScreen GST-Six1/His-Eya2 binding, biochemical; active compounds read low; control for the full effect not named in the record | activity change, % (no concentration beside the values); in the data active = activity change below about -65%; inconclusive = about -30% to -65%; inactive = above about -30%; also: % is scaled to controls: 0 for no effect and ±100 for the full control effect
Target sequence (O00167 whole entry, looked up): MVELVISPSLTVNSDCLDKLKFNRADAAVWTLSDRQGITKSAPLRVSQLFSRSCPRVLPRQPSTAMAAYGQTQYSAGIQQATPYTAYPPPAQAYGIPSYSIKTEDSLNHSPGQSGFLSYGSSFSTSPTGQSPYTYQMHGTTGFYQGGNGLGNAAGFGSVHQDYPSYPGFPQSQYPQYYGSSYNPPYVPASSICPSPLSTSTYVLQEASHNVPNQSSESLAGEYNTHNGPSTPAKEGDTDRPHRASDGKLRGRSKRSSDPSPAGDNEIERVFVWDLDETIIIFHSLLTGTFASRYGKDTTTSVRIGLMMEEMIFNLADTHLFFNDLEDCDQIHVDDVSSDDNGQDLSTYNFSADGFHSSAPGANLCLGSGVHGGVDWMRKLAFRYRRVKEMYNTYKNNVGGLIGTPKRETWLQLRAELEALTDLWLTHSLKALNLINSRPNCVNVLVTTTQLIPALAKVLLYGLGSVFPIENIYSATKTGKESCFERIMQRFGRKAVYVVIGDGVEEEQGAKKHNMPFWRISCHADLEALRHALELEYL
Target sequence (Q15475 whole entry, looked up): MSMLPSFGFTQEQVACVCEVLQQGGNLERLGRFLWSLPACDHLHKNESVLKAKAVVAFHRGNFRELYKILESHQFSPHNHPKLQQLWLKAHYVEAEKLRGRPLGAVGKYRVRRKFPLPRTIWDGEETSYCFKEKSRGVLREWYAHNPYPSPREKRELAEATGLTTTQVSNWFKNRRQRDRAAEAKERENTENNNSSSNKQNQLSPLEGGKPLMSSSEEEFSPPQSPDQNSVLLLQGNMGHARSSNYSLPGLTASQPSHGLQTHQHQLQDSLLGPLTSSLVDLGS
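GST-Six1 + His-Eya2 (5X stock: 250/500 nM); Tris pH 8.0, 300 mM NaCl, 0.05% BSA, 0.02% Tween 20; GSH donor/Ni acceptor beads; 1 h 37 °C dark; AlphaScreen readout.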
D2 potentiator – potentiates the human D2 dopamine receptor allosterically | P14416 | DiscoveRx D2 beta-arrestin cells, luminescence, 90 min; 100% = 57 uM dopamine signal | potentiation, % (test concentration not listed) | 0.23% of 360,000 active | AID 624464; active = potentiation of 50% or more; inconclusive = 30% to 50%; inactive = 30% or less;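 also: compound concentration not given in the record; tested on top of an EC20 dose of dopamine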
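PathHunter D2 cells, attached overnight at 37 deg C, received compound in DMSO plus dopamine at EC20 (50 nM final) for 90 min at 37 deg C. Beta-arrestin recruitment was read as luminescence after 1 h with detection reagent at ambient temperature.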
D2 agonist – human D2 receptor agonism in beta-arrestin assay. AID 624465. activation, % (concentration not given with the values). 0.084% of 360,000 active. DiscoveRx PathHunter D2 beta-arrestin, luminescence, 90 min; 100% = 57 uM dopamine signal; in the data active = activation above about 40%; inconclusive = about 15% to 40%; inactive = below about 15%; also: compound concentration not given in the record; the text of the record calls up to 30% inactive
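DiscoveRx PathHunter D2 beta-arrestin cells (2,100/well) attached overnight, then compound-stimulated 90 min at 37 C in HBSS/10 mM HEPES/0.1% Tween-20 buffer; beta-galactosidase complementation read by luminescence after 1 h at ambient temperature. Dopamine 57 uM final (EC100) as control.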
gsp agonist – gsp mutant agonism; gsp mutant cells, cAMP HTRF, 30 min; control for the full effect not named in the record; Potency, µM (highest dose often 76.9 µM), for the others: top-dose activation (cAMP increase), usual class: activators; AID 624287; 0.13% of 340,000 active; active = well fitted activation curve with a large enough effect; inconclusive = small, poorly fitted or top-dose-only effect, or another doubt; inactive = no such curve, though single readings can be large or run the other way; cell line not stated here;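 also: phosphodiesterase inhibitor Ro 20-1724 added with compounds to block cAMP breakdown; potency is read from the fitted curve at half-maximal effect; nearly all actives have a fitted effect of over 60% in size; about a fifth of the inactives were tested at one dose only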
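Cells stably selected in G418 were plated at 2000/well, grown 16-24 hr, then given compounds in DMSO with the PDE inhibitor […] (300 uM solution added) for 30 min at 37C; cAMP was read by HTRF.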
gsp antagonist – antagonizes gsp, the McCune-Albright syndrome mutation; 0.4% of 340,000 active; AID 624288; Potency, µM (doses to about 76.9 µM), inactives show at the top dose activity change, negative = inhibition, most hits filed as inhibitors; gsp-mutant cells, cAMP HTRF, 30 min; control for the full effect not named in the record; active = falling curve of any shape with a large fitted effect; inconclusive = falling curve, mostly with a smaller effect; inactive = flat or rising curve; cell line not stated here;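 also: intracellular cAMP measured with PDE inhibitor Ro 20-1724 present during compound exposure; potency is read from the fitted curve at half-maximal effect; % is scaled to controls: 0 for no effect and ±100 for the full control effect; nearly all actives have a fitted effect of over 65% in size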
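G418-selected cells were plated in DMEM/10% FBS for 16-24 h at 37C, then treated with compounds plus the PDE inhibitor […] (300 uM solution added) for 30 min at 37C. Intracellular cAMP was measured by HTRF after 30 min lysis at room temperature.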
CtBP-E1A blk – CtBP/E1A binding inhibition. AlphaScreen GST-E1A/His-CtBP binding, 1536-well; active compounds read low; control for the full effect not named in the record. activity change, % (concentration not given with the values). 0.49% of 340,000 active; in the data active means activity change below about -65%; inconclusive means about -30% to -65%; inactive means above about -30%; also: % is scaled to controls: 0 for no effect and ±100 for the full control effect
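AlphaScreen with 125 nM GST-E1A and 125 nM His-CtBP (5X stocks) in Tris pH 8.0, 300 mM NaCl, BSA, Tween 20, TCEP. Compounds preincubated 2 h at 37 deg C, then glutathione donor/nickel acceptor beads added for 1 h at 37 deg C in dark.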
An asterisk follows results filed as active; [ ] = dose if it differs, or a comment.

Cc1cc(C)nc(N(C#N)C(C)C(=O)N(C)C)n1 (configuration not stated) was read as Six1-Eya2 blk 2, D2 potentiator -4, D2 agonist 1.6, gsp agonist 0%, gsp antagonist 14% and CtBP-E1A blk 1.
CN1CCN(C(=O)C2CCCCC2C(=O)O)CC1 (configuration not stated) was read as Six1-Eya2 blk 5, D2 potentiator -3, D2 agonist -4.7, gsp agonist -1%, gsp antagonist 3% and CtBP-E1A blk 4.
`CC(=O)C(Cc1ccccc1)NC(=O)COC(=O)c1cc(S(=O)(=O)N2CCOCC2)ccc1F` (configuration not stated) gave Six1-Eya2 blk 4, D2 potentiator -6, D2 agonist 0.4, gsp agonist -10% and CtBP-E1A blk 2.
Screening CCOc1ccc(N2CC(C(=O)NCc3ccc(F)cc3)CC2=O)cc1 (configuration not stated) returned Six1-Eya2 blk 3, D2 potentiator 3, D2 agonist -1.4, gsp agonist -5%, gsp antagonist 3% and CtBP-E1A blk 2.
COC(=O)c1ccc(NS(=O)(=O)N(C)C)cc1 was read as Six1-Eya2 blk -8, D2 potentiator -9, D2 agonist -3.7, gsp agonist -4%, gsp antagonist 9% and CtBP-E1A blk -8.
Screening CC1CN(C(=O)CSc2cn(CC(=O)N3CCOCC3)c3ccccc23)CC(C)O1 (configuration not stated) returned Six1-Eya2 blk 12, D2 potentiator -3, D2 agonist 1.8, gsp agonist inconclusive, gsp antagonist 2% and CtBP-E1A blk 5.
`COCCN(C(=O)COC(=O)CCOc1cccc(C)c1)c1c(N)n(Cc2ccccc2)c(=O)[nH]c1=O` gave Six1-Eya2 blk -2, D2 potentiator -29, D2 agonist -5.8, gsp agonist 28%[15.4 µM], gsp antagonist 11% and CtBP-E1A blk 2.
Cc1c(NC(=O)c2cnn3c(C(F)(F)F)cc(-c4ccco4)nc23)c(=O)n(-c2ccccc2)n1C was read as Six1-Eya2 blk 3, D2 potentiator -38, D2 agonist -0.1, gsp agonist -38%[inhibitor], gsp antagonist -10% and CtBP-E1A blk 5.
Screening CCCC(=O)C1=C(O)C(C(=O)OC)C(C)(C)CC1=Nc1ccc(C)cc1 (configuration not stated) returned Six1-Eya2 blk 7, D2 potentiator -25, D2 agonist 3.1, gsp agonist inconclusive and gsp antagonist -10%.
For Cc1ccc(NC(=O)C(C)N2C(=O)c3ccccc3S2(=O)=O)cc1Cl (configuration not stated) the results were Six1-Eya2 blk 9, D2 potentiator -3, D2 agonist -3.2, gsp agonist 17%[15.4 µM], gsp antagonist -24% and CtBP-E1A blk 0.
`Cc1cccc2sc(NC(=O)CN3C(=O)C4CC=CCC4C3=O)nc12` (configuration not stated) gave Six1-Eya2 blk -3, D2 potentiator -4, D2 agonist -3.4, gsp agonist -1%[15.4 µM], gsp antagonist 8% and CtBP-E1A blk -10.
Screening C/C(=N\NC(=O)c1cccc(S(=O)(=O)N2CCCC2)c1)c1ccncc1 returned Six1-Eya2 blk 2, D2 potentiator 6, D2 agonist -1.5, gsp agonist 2% and gsp antagonist -5%.
`COc1cccc(OC)c1C(=O)NC(=O)Nc1c(C)cccc1C` gave Six1-Eya2 blk 2, D2 potentiator -10, D2 agonist -3.0, gsp agonist 26%, gsp antagonist 10% and CtBP-E1A blk 4.
Screening O=P1(O)C=C(c2ccccc2)OC(c2ccccc2)=C1 returned Six1-Eya2 blk 11, D2 potentiator -11, D2 agonist 0.9, gsp agonist 1%, gsp antagonist 8% and CtBP-E1A blk 0.
COCCN1C(=O)CS/C1=C(/C#N)C(=O)NCc1ccco1 was read as Six1-Eya2 blk -14, D2 potentiator 1, D2 agonist 9.6, gsp agonist 23%, gsp antagonist 10% and CtBP-E1A blk -7.
Screening CCOC(=O)c1cnc(-n2nc(C)cc2C)nc1Oc1ccccc1F returned Six1-Eya2 blk -22, D2 potentiator -9, D2 agonist -1.1, gsp agonist -16%[15.4 µM], gsp antagonist -3% and CtBP-E1A blk 4.
For C=CCn1c(CCCOc2ccc(Cl)cc2Cl)n[nH]c1=S the results were Six1-Eya2 blk 6, D2 potentiator 2, D2 agonist -2.4, gsp agonist inconclusive, gsp antagonist 9% and CtBP-E1A blk 15.
`O=C(NCCCN1CCOCC1)c1cc(-c2ccc(Br)cc2)nc2ccccc12` gave Six1-Eya2 blk -3, D2 potentiator -36, D2 agonist -0.6, gsp agonist inconclusive, gsp antagonist -8% and CtBP-E1A blk -1.
For CCOC(=O)C1CCN(C(=O)C2CCCN(S(=O)(=O)c3ccc(OC)c(Cl)c3)C2)CC1 (configuration not stated) the results were Six1-Eya2 blk -3, D2 potentiator 2, D2 agonist -3.7, gsp agonist -20%, gsp antagonist -25% and CtBP-E1A blk 4.
For COc1ccc(CCNC(=O)Cn2c(=O)cnc3ccccc32)cc1 the results were Six1-Eya2 blk -1, D2 potentiator 26, D2 agonist -1.0, gsp agonist -37%[inhibitor], gsp antagonist 17% and CtBP-E1A blk 9.

2 compounds drawn at random from the list so far, as already listed:
For CCOC(=O)C1CCN(C(=O)C2CCCN(S(=O)(=O)c3ccc(OC)c(Cl)c3)C2)CC1 (configuration not stated) the results were Six1-Eya2 blk -3, D2 potentiator 2, D2 agonist -3.7, gsp agonist -20%, gsp antagonist -25% and CtBP-E1A blk 4.
Screening O=P1(O)C=C(c2ccccc2)OC(c2ccccc2)=C1 returned Six1-Eya2 blk 11, D2 potentiator -11, D2 agonist 0.9, gsp agonist 1%, gsp antagonist 8% and CtBP-E1A blk 0.

Gathered by group, the compounds so far containing an aryl methoxy group
`COc1cccc(OC)c1C(=O)NC(=O)Nc1c(C)cccc1C` gave Six1-Eya2 blk 2, D2 potentiator -10, D2 agonist -3.0, gsp agonist 26%, gsp antagonist 10% and CtBP-E1A blk 4.
For CCOC(=O)C1CCN(C(=O)C2CCCN(S(=O)(=O)c3ccc(OC)c(Cl)c3)C2)CC1 (configuration not stated) the results were Six1-Eya2 blk -3, D2 potentiator 2, D2 agonist -3.7, gsp agonist -20%, gsp antagonist -25% and CtBP-E1A blk 4.
For COc1ccc(CCNC(=O)Cn2c(=O)cnc3ccccc32)cc1 the results were Six1-Eya2 blk -1, D2 potentiator 26, D2 agonist -1.0, gsp agonist -37%[inhibitor], gsp antagonist 17% and CtBP-E1A blk 9.

More compounds follow:
For Cc1nc(Cl)c(C(=O)NCc2ccccc2)c(C)c1Cl the results were Six1-Eya2 blk -3, D2 potentiator -28, D2 agonist 1.4, gsp agonist -28%[15.4 µM], gsp antagonist -3% and CtBP-E1A blk -4.
For Cn1c(=O)c2c(nc(SCC(=O)N3CCOCC3)n2C)n(C)c1=O the results were Six1-Eya2 blk -1, D2 potentiator -5, D2 agonist 2.0, gsp agonist 10%[15.4 µM], gsp antagonist 12% and CtBP-E1A blk 3.
Cn1ccc2c(-c3ccc(C(F)(F)F)cc3)cc3c(c21)C1CCC3C1 (configuration not stated) was read as Six1-Eya2 blk -3, D2 potentiator -8, D2 agonist -2.7 and CtBP-E1A blk 4.
CC(C)N(Cc1ccccc1)C(=S)Nc1ccc(OC(F)F)cc1 was read as Six1-Eya2 blk 11, D2 potentiator 0, D2 agonist 1.3, gsp agonist 4%, gsp antagonist -4% and CtBP-E1A blk 7.
Cc1cc(C)nc(-n2nc(C)cc2NC(=O)CN2CCCC2)n1 was read as Six1-Eya2 blk 6, D2 potentiator -10, D2 agonist 0.0, gsp agonist 3% and gsp antagonist 8%.
Screening O=C(COc1ccc(Br)cc1)c1ccc2c(c1)CCCC2 returned Six1-Eya2 blk 41, D2 potentiator -8, D2 agonist -4.9, gsp agonist 21%, gsp antagonist -4% and CtBP-E1A blk 9.
Cc1ccc(CNC(=O)CCC2CCCN(Cc3cccc4ncccc34)C2)o1 (configuration not stated) was read as Six1-Eya2 blk 5, D2 potentiator -9, D2 agonist -1.5, gsp agonist -31%[15.4 µM], gsp antagonist -6% and CtBP-E1A blk 12.
`COc1ccc(CCN2C(=O)C=CC2=O)cc1OC` gave Six1-Eya2 blk -7, D2 potentiator -38, D2 agonist -2.0, gsp agonist 8%, gsp antagonist -8% and CtBP-E1A blk -3.
Screening O=C(Nc1ccc(F)cc1)Nc1ccc2c(c1)OCO2 returned Six1-Eya2 blk -7, D2 potentiator 3, D2 agonist -1.7, gsp agonist 22%, gsp antagonist -6% and CtBP-E1A blk 1.
`CCc1nc(N2CCCCC2)c2oc3ccccc3c2n1` gave Six1-Eya2 blk 3, D2 potentiator -23, D2 agonist -3.8, gsp agonist 5%, gsp antagonist -20% and CtBP-E1A blk 10.
`CCCCc1c(O)nc(SCC(=O)c2ccccc2)n(-c2ccccc2)c1=O` gave Six1-Eya2 blk -5, D2 potentiator -1, D2 agonist 2.4, gsp agonist 11%, gsp antagonist inconclusive and CtBP-E1A blk 1.
For Cn1c(=O)c2c(nc(SC3C(=O)CC(C)(C)CC3=O)n2C)n(C)c1=O the results were Six1-Eya2 blk 1, D2 potentiator 2, D2 agonist 0.4, gsp agonist inconclusive, gsp antagonist 8% and CtBP-E1A blk 6.
Screening COc1ccc(N2CCN(C(=O)c3ccc(CS(=O)c4cccc(Cl)c4)o3)CC2)cc1 (configuration not stated) returned Six1-Eya2 blk -11, D2 potentiator -4, D2 agonist 3.7, gsp agonist -22% and CtBP-E1A blk 2.
`CCSc1nnc(NC(=O)c2cc(C)oc2C)s1` gave Six1-Eya2 blk -6, D2 potentiator 0, D2 agonist 0.7, gsp agonist -10%, gsp antagonist 0% and CtBP-E1A blk 4.
Screening COc1ccc(S(=O)(=O)Cc2ccc(C(=O)NCc3cccnc3)o2)cc1 returned Six1-Eya2 blk 0, D2 potentiator 0, D2 agonist 1.7, gsp agonist -20%, gsp antagonist 6% and CtBP-E1A blk 8.
Screening Cn1cc(S(=O)(=O)N2CCCC2)cc1C(=O)Nc1cccc(C(F)(F)F)c1 returned Six1-Eya2 blk 2, D2 potentiator -6, D2 agonist -1.1, gsp agonist -2%, gsp antagonist -4% and CtBP-E1A blk -5.
Screening CC(Oc1cccc(Cl)c1)C(=O)Nc1ccc(S(=O)(=O)N(C)C2CCN(C)CC2)cc1 (configuration not stated) returned Six1-Eya2 blk 0, D2 potentiator -19, D2 agonist 0.9, gsp agonist 16%, gsp antagonist 10% and CtBP-E1A blk -16.
For COc1cc(C=CC(=O)c2ccccc2)cc(OC)c1OC the results were Six1-Eya2 blk 7, D2 potentiator -6, D2 agonist -1.7 and CtBP-E1A blk -23.
For COc1ccc(S(=O)(=O)N(C)c2ccc(C(=O)NCc3ccco3)cc2)cc1OC the results were Six1-Eya2 blk -3, D2 potentiator -4, D2 agonist 1.8, gsp agonist -2%, gsp antagonist -3% and CtBP-E1A blk -4.
`Cc1ccc(OCCCn2ccnc2)cc1C` gave Six1-Eya2 blk 0, D2 potentiator -6, D2 agonist -2.7, gsp agonist 26%, gsp antagonist 9% and CtBP-E1A blk -1.

Compound activity (PubChem)
